PINK1 modulator – changes PINK1 expression. PINK1 immunofluorescence, high-content cytometry, 24 h. AID 624263. actives 0.2% (n = 410,000). Potency, µM (highest dose often 76.6 µM), for the others: at the top dose activation (PINK1 increase), hits mostly activators; active = well fitted activation curve with a large enough effect; inconclusive = small, poorly fitted or top-dose-only effect; inactive = flat fitted curve, though single readings scatter; cell line not stated here;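 note: potency is the fitted concentration of half-maximal effect; % of control where 0% means no effect; nearly all actives have a fitted effect of over 65% in size; a mitochondrial uncoupler was the plate control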
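Cells are seeded, rested 12 hours, then given compound at five concentrations or DMSO for 24 hours. After fixation, blocking and antibody staining, PINK1 amount and mitochondrial localization are scored; CCCP serves as control.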
D2 ag – human D2 receptor agonism in beta-arrestin assay. P14416. actives 0.084% (n = 360,000). DiscoveRx PathHunter D2 beta-arrestin, luminescence, 90 min; 100% = 57 uM dopamine signal. activation, % (test concentration not listed); in the data active = activation above about 40%; inconclusive = about 15% to 40%; inactive = below about 15%; note: compound concentration not given in the record; the text of the record calls up to 30% inactive
Target sequence (P14416 whole entry, looked up): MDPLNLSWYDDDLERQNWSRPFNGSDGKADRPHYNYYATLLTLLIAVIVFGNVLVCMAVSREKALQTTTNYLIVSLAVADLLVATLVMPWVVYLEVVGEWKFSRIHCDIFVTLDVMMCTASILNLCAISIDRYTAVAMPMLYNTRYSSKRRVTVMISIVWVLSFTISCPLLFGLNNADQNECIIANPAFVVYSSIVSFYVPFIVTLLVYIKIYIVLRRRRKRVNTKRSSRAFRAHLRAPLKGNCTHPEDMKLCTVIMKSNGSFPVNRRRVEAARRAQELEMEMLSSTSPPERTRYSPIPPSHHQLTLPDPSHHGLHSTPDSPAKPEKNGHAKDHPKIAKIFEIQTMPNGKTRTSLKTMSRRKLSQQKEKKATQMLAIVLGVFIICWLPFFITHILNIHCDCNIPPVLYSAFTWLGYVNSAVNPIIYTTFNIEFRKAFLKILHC
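DiscoveRx PathHunter D2 beta-arrestin cells (2,100/well) attached overnight, then compound-stimulated 90 min at 37 C in HBSS/10 mM HEPES/0.1% Tween-20 buffer; beta-galactosidase complementation read by luminescence after 1 h at ambient temperature. Dopamine 57 uM final (EC100) as control.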
TRPML1 inh – blocks the human TRPML1 channel; TRPML1-inducible cells, Ca2+ dye fluorescence, FDSS; hits give low values; inhibition of EC80 agonist-evoked calcium signal; actives 0.02% (n = 390,000); activity change, negative = inhibition, % (test concentration not listed); Q9GZU1; in the data active means activity change below about -50%; inconclusive means about -30% to -50%; inactive means above about -30%;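 note: stimulus is agonist 54-4 at its EC80 concentration; % is set by controls: 0 for no effect and ±100 for the full control effect; compound concentration not given in the record; the text of the record puts the active cut at -80%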
Target sequence (Q9GZU1 whole entry, looked up): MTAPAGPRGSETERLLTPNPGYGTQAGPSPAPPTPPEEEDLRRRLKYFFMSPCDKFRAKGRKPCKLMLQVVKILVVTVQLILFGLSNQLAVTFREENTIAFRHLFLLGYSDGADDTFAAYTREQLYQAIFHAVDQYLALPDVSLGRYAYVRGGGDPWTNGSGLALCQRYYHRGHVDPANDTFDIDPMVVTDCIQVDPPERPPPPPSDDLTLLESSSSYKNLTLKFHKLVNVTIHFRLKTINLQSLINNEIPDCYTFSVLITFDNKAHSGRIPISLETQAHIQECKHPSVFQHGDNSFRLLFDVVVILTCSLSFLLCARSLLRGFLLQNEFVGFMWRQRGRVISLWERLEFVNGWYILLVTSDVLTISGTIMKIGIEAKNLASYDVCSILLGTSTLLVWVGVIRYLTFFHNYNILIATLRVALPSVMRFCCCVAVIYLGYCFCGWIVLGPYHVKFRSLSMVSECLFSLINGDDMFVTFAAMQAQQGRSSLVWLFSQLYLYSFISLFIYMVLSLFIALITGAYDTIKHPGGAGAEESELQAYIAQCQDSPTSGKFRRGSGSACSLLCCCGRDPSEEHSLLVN
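TRPML1-DL cells, Tet-induced overnight (~16 h, 37 °C) at 1,500 cells/well, were loaded with Ca8 no-wash dye plus quencher for 45-90 min at room temperature. Compounds were pinned during FDSS kinetic reading; agonist 54-4 at EC80 (4 uM final) then added.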
CtBP-E1A blk – blocks the CtBP interaction with E1A | actives 0.49% (n = 340,000) | activity change, % (no concentration beside the values) | AlphaScreen GST-E1A/His-CtBP binding, 1536-well; hits give low values; control for the full effect not named in the record | AID 651724; in the data active means activity change below about -65%; inconclusive means about -30% to -65%; inactive means above about -30%; note: % is set by controls: 0 for no effect and ±100 for the full control effect; compound concentration not given in the record
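GST-E1A and His-tagged CtBP (125 nM each as 5X stock) were preincubated with pin-transferred compound for 2 h at 37 °C in the dark, then glutathione donor and nickel acceptor beads were added for 1 h before AlphaScreen reading.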
TRPML1 ag – activates the human TRPML1 channel; actives 0.12% (n = 410,000); Q9GZU1; AID 624414; activation, % (concentration not given with the values); TRPML1-expressing cells, Ca2+ dye fluorescence, FDSS; host cell line not named in the record; reference of the full effect not given here; in the data active = activation above about 50%; inconclusive = about 30% to 50%; inactive = below about 30%; note: 0% is about no effect; the text of the record puts the active cut at 80%
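Agonist activity was taken from a 110 s kinetic Ca2+ dye read on the FDSS after pinning compounds onto TRPML1-DL cells. The cells were seeded at 1,500/well with Tet inducer, incubated about 16 h, then dye-loaded at room temperature.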
Six1-Eya2 blk – blocks human Six1 binding to Eya2. Q15475+O00167. activity change, % (concentration not given with the values). actives 0.56% (n = 360,000). AID 651725. AlphaScreen GST-Six1/His-Eya2 binding, biochemical; hits give low values; control for the full effect not named in the record; in the data active = activity change below about -65%; inconclusive = about -30% to -65%; inactive = above about -30%; note: % is set by controls: 0 for no effect and ±100 for the full control effect
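Compounds are tested against tagged Six1 and Eya2 proteins bridged by glutathione donor and nickel acceptor beads; after a one-hour incubation at 37 °C without light, AlphaScreen emission is recorded.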
An asterisk follows results filed as active; ? = inconclusive; / = not tested or not shown; [ ] = remark or other dose.

Start of the data: the first two compounds, ahead of the listing:
smiles	PINK1 modulator	D2 ag	TRPML1 inh	CtBP-E1A blk	TRPML1 ag	Six1-Eya2 blk
CCCCn1nc(C(=O)NC2=NCCS2)c2ccccc2c1=O	1.7%	-1.7	21.2	0.2	0.1	-0.6
CCOC(=O)c1cc2c(ccn2C)n1CC(=O)N1C(C)CCCC1C (stereo not given)	0.2%	-5.2	12.2	-6.2	0.0	2.5

The whole of this part, from the first entry:
smiles	PINK1 modulator	D2 ag	TRPML1 inh	CtBP-E1A blk	TRPML1 ag	Six1-Eya2 blk
CCCCn1nc(C(=O)NC2=NCCS2)c2ccccc2c1=O	1.7%	-1.7	21.2	0.2	0.1	-0.6
CCOC(=O)c1cc2c(ccn2C)n1CC(=O)N1C(C)CCCC1C (stereo not given)	0.2%	-5.2	12.2	-6.2	0.0	2.5
Cc1[nH]c(C)c(S(=O)(=O)Nc2ccccc2)c1C(=O)N1CCCC1	0.5%	1.7	26.2	3.0	1.6	5.1
O=c1oc2ccccc2c(NC2CCCCC2)c1NS(=O)(=O)c1ccc(F)c(Cl)c1	2.8%	-4.8	-15.0	-2.2	?	-5.7
Cc1cccc(NC(=O)Cn2cc(C(=O)C3CC3)c3ccccc32)c1	5.9%	2.4	-15.8	-22.3	0.0	-0.9
Cc1onc(-c2ccccc2)c1C(=O)Nc1nnc(C(C)(C)C)s1	2.7%	4.0	4.6	4.3	-0.4	-4.7
CCc1ccc(S(=O)(=O)c2c(C(=O)c3ccccc3)cnc3ccc(CC)cc23)cc1	-0.3%	/	5.3	/	0.6	/
O=C(COc1ccc(Cl)cc1)NC(=S)Nc1ccccc1N1CCOCC1	-1.1%	-3.5	11.8	-7.2	0.7	-7.9
O=C1C2CC=C(Cl)CC2C(=O)N1CCc1ccccc1 (stereo not given)	-4.9%[38.3 µM]	1.3	-0.7	-4.5	1.9	0.4
Cc1ccccc1CC1(CO)CCCN(C(=O)CCC(F)(F)F)C1 (stereo not given)	0.1%	-3.2	-15.5	0.6	-0.7	3.0
CN(C)C(CNC(=O)C1CCN(S(=O)(=O)c2ccc(Cl)cc2)CC1)c1ccccc1 (stereo not given)	-0.7%	2.5	4.9	4.9	0.5	4.6
COc1cc(C(=O)OCC(=O)Nc2ccc(S(=O)(=O)NC3=NCCCCC3)cc2)cc(OC)c1OC	-0.3%	-2.2	12.2	/	-0.1	-5.2
C[C@H]1COc2cccc(N(C)CCO)c2S(=O)(=O)N1	-0.7%	/	/	4.4	0.1	-2.0
Cc1ccc(C(=O)Nc2ccc(F)cc2)cc1S(=O)(=O)N1CCOCC1	-0.8%	/	24.2	/	-0.7	/
CC(Cc1ccccc1)NC(=O)/C=C/c1ccc([N+](=O)[O-])cc1 (stereo not given)	1.7%	1.2	12.9	-18.9	-0.9	-4.1
CN(C)c1ccc(C(=O)NNC(=O)Nc2ccccc2)cc1	1.0%	-5.2	-3.0	4.0	-0.8	3.2
CCN(CC)S(=O)(=O)c1ccc2oc(C(=O)Nc3cc(C)ccc3OC)c(C)c2c1	0.1%	/	1.4	/	-0.6	/
COc1cccc(OC)c1C(=O)N1CCN(Cc2c[nH]c3ccccc23)CC1	1.0%	-2.9	1.0	-0.8	0.1	1.0
COCCn1c(SCC(=O)Nc2sccc2C(N)=O)nc2cc(Cl)ccc2c1=O	4.4%	-2.0	-25.8	-12.7	0.4	?
COc1ccc(NC(=O)c2cn(CC(C)C)c(=O)c3cc(OC)c(OC)cc23)cc1Cl	1.5%	/	9.6	/	0.3	/
Cc1oc2c(c(C)cc3oc(=O)c(CC(=O)NCCc4ccc(Cl)cc4)c(C)c32)c1C	0.2%	/	-11.7	/	-0.4	/
Cc1nc(NC(=S)NC(=O)c2ccccc2)sc1C(=O)N(C)C	8.8%[38.3 µM]	-4.8	19.0	-6.9	-0.1	-3.1
O=S(=O)(c1ccc(N2CCOCC2)nc1)N1CCOCC1	?	-1.4	-12.0	7.2	1.0	1.9
O=C(Nc1ccccc1)C1=C[C@@H](c2coc3ccccc3c2=O)C[C@@H](OCCCCO)O1	0.8%	1.2	-9.6	3.2	-0.1	-0.6
COc1cc(C(=O)NCCCc2nc3ccccc3n2CC(C)C)cc(OC)c1OC	2.7%	/	9.6	/	-0.9	/
Cc1cc(C)c(C#N)c(SCC(=O)Nc2nnc(-c3ccccc3)s2)n1	2.2%	-1.2	-7.5	1.2	-0.6	0.0
CCn1c(CSc2nc3ccccc3s2)nnc1SCC(=O)c1ccc(Cl)cc1	-1.6%	-1.3	23.0	-0.7	2.6	5.0
Cc1ccc2c(c1)c(Sc1ccccc1)c(CC(=O)O)n2C	6.0%	-1.7	26.2	1.3	0.4	0.0
CCc1nc2oc3ccccc3c(=O)c2c(=O)n1CCOC	-1.8%	0.9	24.2	-12.4	0.2	10.4
COc1ccc(/C=N/n2cc(-c3ccc(OC)cc3)nc2N)cc1	/	-0.2	-10.5	-17.4	0.2	-15.4
CN(C)S(=O)(=O)c1ccc(N2CCCC2)c(C(=O)Nc2nc(-c3ccc(F)c(F)c3)cs2)c1	2.6%	-3.9	-0.2	-2.9	-0.1	-7.8
COc1ccc(-c2cn(CCO)c(-c3ccncc3)n2)cc1	2.0%	-1.9	-20.3	1.8	-0.1	-4.2
COc1ccccc1CNC(=O)c1ccc2nc(-c3ccccc3)c(-c3ccccc3)nc2c1	4.9%	/	17.4	/	2.5	/
CCN(CC)CC(=O)N1c2ccccc2Sc2ccc(Cl)cc21	-2.8%	-1.6	12.3	-6.0	0.2	-8.2
CCN(CC)c1nc(N)c2c(N)nc3c(c2c1C#N)CC(c1ccccc1)O3 (stereo not given)	-0.9%[38.3 µM]	-1.8	-1.2	-1.7	0.4	-2.0
Cc1c(NC(=O)CSc2nnc(C(C)Oc3ccc(Cl)cc3)n2-c2ccccc2)c(=O)n(-c2ccccc2)n1C (stereo not given)	-0.8%[38.3 µM]	-2.0	-9.0	-5.9	0.0	-0.1
CC(=O)CS(=O)(=O)c1ccc(Oc2ccc(S(=O)(=O)CC(C)=O)cc2)cc1	0.7%	0.0	3.3	4.8	-0.1	7.2
O=C(c1ccc2ccccc2c1)C1CCCN(C(=O)c2cnccn2)C1 (stereo not given)	-0.5%	5.4	-15.4	0.0	0.1	0.3
CN(CCOC(=O)c1ccccc1)Cc1ccccc1	4.0%	-0.4	-5.3	-8.4	1.1	5.7
CC(OC(=O)CCN1C(=O)c2cccc([N+](=O)[O-])c2C1=O)C(=O)Nc1cc(Cl)cc(Cl)c1 (stereo not given)	0.5%	4.6	12.1	-1.8	-0.4	-18.7
CCOc1cc2[nH]c(=O)n(CCCCC(=O)N3CCCCCC3)c(=O)c2cc1OCC	-2.2%	1.4	15.8	2.2	2.7	3.8
CCOc1ccc(C(=O)NCC(=O)NNC(=O)C2COc3ccccc3O2)cc1OCC (stereo not given)	1.0%	-2.1	-3.4	-5.2	0.0	12.1
O=C(NCCO)c1nc(NCCO)c2ccccc2n1	3.0%[38.3 µM]	2.0	7.6	2.6	0.8	-0.1
Cc1cccc(C(=O)Nc2cccc(C(=O)NC3CCCC3)c2)c1	-1.5%	-3.1	19.7	-1.3	-0.3	-0.5
O=C(CCC(=O)N(CC(=O)NC1CCCCC1)c1ccc2c(c1)OCO2)Nc1ccccn1	0.8%	-0.2	-8.6	-3.5	1.0	6.1
CCCC1C(=O)N(c2ccccc2)C1c1ccccc1 (stereo not given)	2.4%	0.6	3.3	6.9	1.0	17.5
CCOc1cc(/C=C2\N=C(SC)SC2=O)cc([N+](=O)[O-])c1OC(C)=O	0.5%	-6.8	0.1	-12.4	-1.0	-26.0
COc1ccc(Cl)cc1NC(=O)CN1C(=O)CSc2ccc(S(=O)(=O)N3CCCC3)cc21	-1.2%	/	-24.0	/	4.4	/
NS(=O)(=O)c1ccc(CNc2ncnc3sccc23)cc1	0.0%	1.9	8.0	-0.8	-0.2	-1.6
CCOc1ccc2ccccc2c1/C=N/NC(=O)c1cc(C)[nH]n1	-1.3%	-1.4	1.1	-5.6	-0.4	4.2
CC(C)Nc1nc2nonc2nc1Nc1ccccc1	?	-1.5	28.7	0.7	0.6	2.6
Cc1cc(C)cc(N2CC(c3nnc(NC(=O)c4ccco4)s3)CC2=O)c1 (stereo not given)	-1.2%	/	-5.7	/	-0.7	/
COc1ccccc1N1CCN(S(=O)(=O)c2cc3c(cc2C)NC(=O)CO3)CC1	-0.3%	1.4	23.0	-12.6	-0.7	-24.3
Cc1ccc(NC(=O)C2CCCN2C(=O)NC2CCCCC2)cc1 (stereo not given)	-0.4%	12.3	2.5	3.2	1.2	11.5
CC1CCCN(S(=O)(=O)c2cc(C(=O)NCc3ccco3)ccc2Cl)C1 (stereo not given)	2.0%	7.0	1.1	/	0.5	-3.3
Cc1ccc(C)c(S(=O)(=O)N2CCN(CC(=O)NC(C)c3ccccc3)CC2)c1 (stereo not given)	2.3%	-1.7	-1.2	-6.7	0.7	-0.2
COc1cccc2c1C(=O)CC2NC(=O)C(F)(F)F (stereo not given)	5.5%[38.3 µM]	-1.1	-8.9	-3.4	0.4	1.6
CN1CCN(CCC(=O)N/N=C/c2cc([N+](=O)[O-])ccc2O)CC1	-0.4%	0.6	25.7	-76.6*	0.1	-86.8*
O=C(O)CCCC(=O)N1CC(=O)Nc2ccccc21	-0.7%	-1.0	2.6	0.9	0.5	3.4
COc1ccc(NC(=O)N2CCN(C(=O)C(Cc3ccc(F)cc3)NC(C)=O)CC2)cc1 (stereo not given)	0.8%	-0.1	-18.6	-13.6	1.0	-9.8

(further entries)
smiles	PINK1 modulator	D2 ag	TRPML1 inh	CtBP-E1A blk	TRPML1 ag	Six1-Eya2 blk
CCOC(=O)/C=C1\SCC(=O)N1CC(=O)NCCOC	1.9%	0.6	20.4	-1.6	1.4	-1.8
Cc1[nH]c(=S)c(C#N)c(C)c1CC(=O)c1ccc(Br)cc1	0.0%	-7.4	4.7	-9.1	0.9	-4.7
CN(C)CCCSc1nc(-c2ccccc2)nc2c1CCC2	-0.4%	-8.2	3.6	/	0.6	-18.9
O=C(CSc1nc(-c2ccc(F)cc2)cc(C(F)(F)F)n1)NCc1ccco1	4.4%	-1.4	?	5.0	-0.7	-2.1
COC(=O)NC(=S)Nc1ccc(Oc2ccc(Cl)cc2)c(Cl)c1	/	-2.5	-3.4	8.0	1.1	-2.4
COc1ccccc1Nc1sc(C(=O)c2ccc3c(c2)OCO3)c(N)c1S(=O)(=O)c1ccccc1	-0.9%	/	-0.6	/	1.1	/
O=C(C1CCN(S(=O)(=O)c2ccccc2)CC1)N1CCN(c2ccccc2F)CC1	-1.7%	-1.6	9.8	/	-0.4	2.3

Bioassay records deposited in PubChem BioAssay by National Center for Advancing Translational Sciences (NCATS).
